High-throughput results as filed in PubChem BioAssay.
Hsc70: small molecules displacing fluorescent ligand from Hsc70 – biochemical, fluorescence polarization, primary screen (AID 568). Hsc70 fluorescence polarization, probe displacement; higher % means a stronger effect; strong numbers were not always called active. 83,000 tested, under 10 active. one-dose displacement, % at 20 µM; IC50 in µM for titrated hits;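 active = displacement above 50% without optical interference and an IC50 on retest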;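 also: ATPase domain with a fluorescein-tagged ATP probe; 0% = vehicle and 100% = excess ADP; read after one hour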
WNV NS2B-NS3 inh: blocks West Nile virus NS2B-NS3 protease activity; P06935; WNV NS2B-NS3 protease, fluorogenic substrate Ex360/Em465; active compounds read low; z-score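 (tested at a level between 10 and 100 µM)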; 65,000 tested, 0.18% active; AID 577;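 active = z-score at -3 or under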;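 also: score is relative to mean and spread of the compound wells of a plate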
Target sequence (P06935 1371-1501 limits assumed): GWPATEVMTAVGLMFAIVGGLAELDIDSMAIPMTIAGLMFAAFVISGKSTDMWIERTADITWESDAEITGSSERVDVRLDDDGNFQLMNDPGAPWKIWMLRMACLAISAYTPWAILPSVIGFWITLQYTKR
Target sequence (P06935 1502-1679 limits assumed): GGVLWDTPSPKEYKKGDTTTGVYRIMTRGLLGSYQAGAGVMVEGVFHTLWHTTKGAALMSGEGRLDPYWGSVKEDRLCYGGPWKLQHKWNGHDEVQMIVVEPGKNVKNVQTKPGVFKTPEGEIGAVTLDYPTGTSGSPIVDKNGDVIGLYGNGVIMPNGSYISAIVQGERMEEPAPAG
MT1-MMP promoter: MT1-MMP gene expression reporter suppression – cell-based, luciferase reporter, luminescence (AID 618); MT1-MMP promoter luciferase reporter cells, luminescence; calls from a first round at 10 µM; hits with a dose series show EC50 in µM; 87,000 tested, 0.62% active;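 active = over half of the reporter light lost at 10 µM or EC50 under 50 µM; inactive = the rest and hits that failed the dose series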;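 also: actives suppress MT1-MMP promoter-driven transcription so potencies describe inhibitors; HT1080 fibrosarcoma cells; overnight exposure; toxic or luciferase-blocking compounds were not removed from the actives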
Numbers without * were called inactive. Some of the compounds tested (hit frequency here may not be typical).

A first look (2 entries):
How did FC(F)(F)c1ccc(Sc2nnc(-c3cccs3)n2CC2CCCO2)nc1 (stereo unspecified) do in these assays?
Hsc70: 6.2%; WNV NS2B-NS3 inh: -0.08; MT1-MMP promoter: inactive

What do the screens show for `COC(=O)C1C(c2ccccc2)C(C(=O)N2CCOCC2)C1c1ccccc1` (stereo unspecified)?
Hsc70: -3.3%; WNV NS2B-NS3 inh: 0.98; MT1-MMP promoter: inactive

All compounds of this part (from the top)
How did FC(F)(F)c1ccc(Sc2nnc(-c3cccs3)n2CC2CCCO2)nc1 (stereo unspecified) do in these assays?
Hsc70: 6.2%; WNV NS2B-NS3 inh: -0.08; MT1-MMP promoter: inactive

What do the screens show for `COC(=O)C1C(c2ccccc2)C(C(=O)N2CCOCC2)C1c1ccccc1` (stereo unspecified)?
Hsc70: -3.3%; WNV NS2B-NS3 inh: 0.98; MT1-MMP promoter: inactive

What do the screens show for `CCCOc1ccc(C2=NNC(c3cccs3)=Nc3ccc(OC)cc32)cc1`?
Hsc70: 1.1%; MT1-MMP promoter: inactive

How did CCC(C)NC(=O)CN(c1cc(C)ccc1OC)S(C)(=O)=O (stereo unspecified) do in these assays?
Hsc70: 6.9%; WNV NS2B-NS3 inh: -1; MT1-MMP promoter: inactive

What do the screens show for `Cc1ccc(CN2C(=O)C(C)(C)Oc3ccc(C(=O)N4CCCCC4)cc32)cc1`?
Hsc70: -7.0%; WNV NS2B-NS3 inh: -0.43; MT1-MMP promoter: inactive

How did Clc1cccc(CSc2nnc(-c3cccnc3)n2Cc2ccco2)c1 do in these assays?
Hsc70: -4.9%; WNV NS2B-NS3 inh: 0.06; MT1-MMP promoter: inactive

What do the screens show for `C=CCc1ccc(OCC(O)COc2ccc(CC=C)cc2OC)c(OC)c1`?
Hsc70: 4.2%; MT1-MMP promoter: inactive

What do the screens show for `CCOC(=O)CC(=O)CSc1nc(C)cc(-c2cccnc2)c1C#N`?
Hsc70: -1.3%; WNV NS2B-NS3 inh: -1.1; MT1-MMP promoter: inactive

How did Nc1ncnc2c1ncn2CCN1CCCCC1 do in these assays?
Hsc70: 12%; WNV NS2B-NS3 inh: -0.63; MT1-MMP promoter: inactive

How did CCN=C1SC(CC(=O)NCC)C(=O)N1CC (stereo unspecified) do in these assays?
Hsc70: 6.1%; MT1-MMP promoter: inactive

What do the screens show for `O=C(CS(=O)CC(=O)Nc1ccc(Cl)cc1)NCC1OCCc2ccccc21` (stereo unspecified)?
Hsc70: -5.7%; WNV NS2B-NS3 inh: 1.4; MT1-MMP promoter: inactive

Results for CCCC(=O)Nc1cccn(Cc2ccccc2Br)c1=O ?
Hsc70: -9.3%; WNV NS2B-NS3 inh: -0.55; MT1-MMP promoter: inactive

What do the screens show for `Cc1cccc(C)c1OCC(=O)Nc1ncn[nH]1`?
Hsc70: -13%; WNV NS2B-NS3 inh: 0.84; MT1-MMP promoter: inactive

Results for Cc1cc(N2CCN(c3ccc(F)cc3)CC2)nc(-c2ccccc2)n1 ?
Hsc70: -4.2%; MT1-MMP promoter: inactive

How did CCC1Oc2ccccc2N(CC(=O)NCCCN2CCOCC2)C1=O (stereo unspecified) do in these assays?
Hsc70: 2.9%; WNV NS2B-NS3 inh: 1.2; MT1-MMP promoter: inactive

What do the screens show for `Cc1cccc(CC2S/C(=N/c3ccccn3)NC2=O)c1` (stereo unspecified)?
Hsc70: -4.5%; MT1-MMP promoter: inactive

What do the screens show for `CC(NC(=O)Nc1cccnc1)(C(F)(F)F)C(F)(F)F`?
Hsc70: -0.4%; WNV NS2B-NS3 inh: 0.73; MT1-MMP promoter: inactive

How did Cn1c(CCN2CCCCC2)nc2cc(NC(=O)C3CCCCC3)ccc21 do in these assays?
Hsc70: 0.7%; WNV NS2B-NS3 inh: -0.69; MT1-MMP promoter: inactive

Results for CCN(CC)CCc1c(C)[nH]c(C(=O)OCc2ccccc2)c1C ?
Hsc70: -0.1%; WNV NS2B-NS3 inh: -0.37; MT1-MMP promoter: inactive

How did CCCS(=O)(=O)N1CCCC(C(=O)NCCN(Cc2ccccc2)C(C)C)C1 (stereo unspecified) do in these assays?
Hsc70: -4.4%; WNV NS2B-NS3 inh: 0.15; MT1-MMP promoter: inactive

How did CC(=O)Nc1ccc(OC/C=C(\C)Cl)cc1 do in these assays?
Hsc70: -4.0%; WNV NS2B-NS3 inh: -0.49; MT1-MMP promoter: inactive

How did Cn1cnnc1SCC(=O)Nc1c(F)cc(F)cc1Br do in these assays?
Hsc70: 2.5%; MT1-MMP promoter: inactive

Results for Cc1cccc(C)c1NC(=O)COC(=O)c1nonc1N ?
Hsc70: 0.9%; WNV NS2B-NS3 inh: 0.01; MT1-MMP promoter: inactive

How did COC(=O)Cc1c(C)c2ccc(O)c(CN3CCCC(C)C3)c2oc1=O (stereo unspecified) do in these assays?
Hsc70: 1.6%; MT1-MMP promoter: inactive

How did Cc1ccc2c(C)nc(NC3=NCN(C(C)C)CN3)nc2c1 do in these assays?
Hsc70: -7.0%; WNV NS2B-NS3 inh: -1.9; MT1-MMP promoter: inactive

How did Cc1cc(C)c2oc(=O)cc(CN3CCOCC3)c2c1 do in these assays?
Hsc70: 1.1%; WNV NS2B-NS3 inh: -0.51; MT1-MMP promoter: inactive

Results for COc1cc2[nH]c3c(N4CCN(c5ccc(Cl)cc5)CC4)ncnc3c2cc1OC ?
Hsc70: 4.9%; WNV NS2B-NS3 inh: 0.09; MT1-MMP promoter: inactive

What do the screens show for `COC(=O)CCS(=O)(=O)c1cc(Cl)ccc1Cl`?
Hsc70: 5.8%; WNV NS2B-NS3 inh: 1.4; MT1-MMP promoter: inactive

Results for COc1ccc(CNC(=O)c2c(N)n(CCCN3CCOCC3)c3nc4ccccc4nc23)cc1 ?
Hsc70: -3.2%; MT1-MMP promoter: inactive

What do the screens show for `CCOCCCNCC(=O)Nc1ccc(OC(F)(F)F)cc1`?
Hsc70: 3.0%; WNV NS2B-NS3 inh: 1.8; MT1-MMP promoter: inactive

Results for COc1cccc2cc(-c3nc(-c4cccs4)cs3)c(=O)oc12 ?
Hsc70: 5.7%; WNV NS2B-NS3 inh: 1.3; MT1-MMP promoter: inactive

How did CCOC(=O)c1cccc(NC(=O)N[C@@H](C)C(=O)OC)c1 do in these assays?
Hsc70: 2.5%; WNV NS2B-NS3 inh: -0.6; MT1-MMP promoter: inactive

How did COc1ccc2c(c1)c(C(=O)CN1CCC3(CC1)OCCO3)c(C)n2C do in these assays?
Hsc70: -1.1%; WNV NS2B-NS3 inh: -0.24; MT1-MMP promoter: inactive

Results for CCOC(=O)CSc1nnc(Cc2ccccc2)n1-c1cccc(Cl)c1 ?
Hsc70: -2.1%; MT1-MMP promoter: inactive

Results for CCOC(=O)Nc1ccc(Oc2ccccc2)cc1 ?
Hsc70: -2.0%; WNV NS2B-NS3 inh: -0.73; MT1-MMP promoter: inactive

Results for O=C1CCC(=O)N1CNc1ccc(Oc2ccccc2)cc1 ?
Hsc70: -4.4%; WNV NS2B-NS3 inh: 1.3; MT1-MMP promoter: inactive

How did CCOC(=O)c1ccc(NC(=O)c2nccnc2C(=O)O)cc1 do in these assays?
Hsc70: -2.2%; WNV NS2B-NS3 inh: -0.79; MT1-MMP promoter: inactive

How did CCCCCNC(=O)CCc1ccccc1 do in these assays?
Hsc70: 3.6%; MT1-MMP promoter: inactive

How did CCN(CC)CCCNc1nc2ccccc2[nH]1 do in these assays?
Hsc70: -1.0%; WNV NS2B-NS3 inh: 2.3; MT1-MMP promoter: inactive

How did COC(=O)CSc1nnc(CNC(=O)c2ccco2)n1-c1ccc(F)cc1 do in these assays?
Hsc70: -7.1%; WNV NS2B-NS3 inh: 0.96; MT1-MMP promoter: inactive

What do the screens show for `O=C(CSc1nnnn1-c1ccc2c(c1)OCCO2)c1cccc2c1OCCO2`?
Hsc70: -9.3%; WNV NS2B-NS3 inh: -0.33; MT1-MMP promoter: inactive

How did CC(=O)c1c(C)[nH]c(C(=O)OCc2nnc(-c3ccccc3)o2)c1C do in these assays?
Hsc70: 1.4%; WNV NS2B-NS3 inh: 1; MT1-MMP promoter: inactive

What do the screens show for `CCn1nnnc1SCC(=O)Nc1ccc(OC)cc1`?
Hsc70: -5.6%; MT1-MMP promoter: inactive

What do the screens show for `S=c1[nH]nc(-c2ccccc2)n1CC1CCCO1` (stereo unspecified)?
Hsc70: 0.7%; WNV NS2B-NS3 inh: -0.54; MT1-MMP promoter: inactive

What do the screens show for `Cc1ccc(S(=O)(=O)c2nc(S(C)(=O)=O)sc2N(C)C)cc1`?
Hsc70: 3.8%; WNV NS2B-NS3 inh: 0.89; MT1-MMP promoter: inactive

What do the screens show for `CN(C)c1nc(SCCOC(=O)c2ccccc2)nc(N(C)C)n1`?
Hsc70: 1.4%; WNV NS2B-NS3 inh: 0.48; MT1-MMP promoter: inactive

How did O=C(COC(=O)c1ccccc1NC(=O)c1ccco1)NC1CCCCC1 do in these assays?
Hsc70: -45%; MT1-MMP promoter: inactive

How did Cc1ccc(O)c(C(=O)c2cc(C#N)c(=O)n(CC3CCCO3)c2)c1 (stereo unspecified) do in these assays?
Hsc70: 4.4%; WNV NS2B-NS3 inh: 0.05; MT1-MMP promoter: inactive

What do the screens show for `Cc1cccc(N2CCN(C(=O)Cn3c(=O)[nH]c4ccsc4c3=O)CC2C)c1` (stereo unspecified)?
Hsc70: -1.3%; MT1-MMP promoter: inactive

What do the screens show for `COc1ccc(S(=O)(=O)Nc2cc(C)ccn2)cc1`?
Hsc70: -0.7%; MT1-MMP promoter: inactive

How did O=C(CCn1c(=O)oc2ccccc21)NCCN1CCOCC1 do in these assays?
Hsc70: -0.4%; WNV NS2B-NS3 inh: 0.73; MT1-MMP promoter: inactive

How did O=C(c1ccco1)N1CCN(C(=O)c2cc3c(s2)-c2ccccc2OC3)CC1 do in these assays?
Hsc70: -3.7%; WNV NS2B-NS3 inh: 3.1; MT1-MMP promoter: inactive

Results for CC(C)c1nnc(NC(=O)Cn2nc(-c3ccc4c(c3)OCCO4)ccc2=O)s1 ?
Hsc70: -1.1%; WNV NS2B-NS3 inh: -1.9; MT1-MMP promoter: inactive

How did O=C(O)CCN1CCc2ccccc21 do in these assays?
Hsc70: 0.0%; WNV NS2B-NS3 inh: 0.74; MT1-MMP promoter: inactive

What do the screens show for `CC(C)OC(=O)CSc1nnc(-c2ccccc2)n1N`?
Hsc70: 0.2%; MT1-MMP promoter: inactive

How did CC1CCc2sc3ncnc(N4CCOCC4)c3c2C1 (stereo unspecified) do in these assays?
Hsc70: -0.1%; WNV NS2B-NS3 inh: -0.41; MT1-MMP promoter: inactive

How did C#CCN(C#N)c1nc(NCC)nc(NC(C)C)n1 do in these assays?
Hsc70: 5.8%; WNV NS2B-NS3 inh: -1.2; MT1-MMP promoter: inactive

Results for Brc1ccccc1-c1nnc(CSc2nncn2-c2ccccc2)o1 ?
Hsc70: -8.7%; WNV NS2B-NS3 inh: 0.58; MT1-MMP promoter: inactive

How did O=S(=O)(Nc1ccc2c(c1)nc1n2CCOC1)c1ccc(Cl)cc1 do in these assays?
Hsc70: 5.1%; WNV NS2B-NS3 inh: -0.73; MT1-MMP promoter: inactive

What do the screens show for `COC(=O)C1=C(C)N(c2cccc3ccccc23)C(=O)C1`?
Hsc70: 10%; WNV NS2B-NS3 inh: -0.75; MT1-MMP promoter: inactive

Sorted by heavy-atom count (falling): 5 of the compounds above
How did CCCS(=O)(=O)N1CCCC(C(=O)NCCN(Cc2ccccc2)C(C)C)C1 (stereo unspecified) do in these assays?
Hsc70: -4.4%; WNV NS2B-NS3 inh: 0.15; MT1-MMP promoter: inactive

How did COC(=O)Cc1c(C)c2ccc(O)c(CN3CCCC(C)C3)c2oc1=O (stereo unspecified) do in these assays?
Hsc70: 1.6%; MT1-MMP promoter: inactive

Results for COc1cccc2cc(-c3nc(-c4cccs4)cs3)c(=O)oc12 ?
Hsc70: 5.7%; WNV NS2B-NS3 inh: 1.3; MT1-MMP promoter: inactive

How did CCC(C)NC(=O)CN(c1cc(C)ccc1OC)S(C)(=O)=O (stereo unspecified) do in these assays?
Hsc70: 6.9%; WNV NS2B-NS3 inh: -1; MT1-MMP promoter: inactive

How did C#CCN(C#N)c1nc(NCC)nc(NC(C)C)n1 do in these assays?
Hsc70: 5.8%; WNV NS2B-NS3 inh: -1.2; MT1-MMP promoter: inactive

The results go on.
How did COc1ccc(NC(=O)C(C)NS(=O)(=O)c2ccccc2)cc1Cl (stereo unspecified) do in these assays?
Hsc70: -4.3%; WNV NS2B-NS3 inh: -0.15; MT1-MMP promoter: inactive

Results for C=CCn1c(=O)c2c3c(sc2n2c(Nc4ccc(OC)cc4)nnc12)CCCC3 ?
Hsc70: 2.0%; WNV NS2B-NS3 inh: -0.74; MT1-MMP promoter: inactive

What do the screens show for `Cc1ccnc(N2C(=O)OC(C)(C)C2(C)O)c1` (stereo unspecified)?
Hsc70: 2.8%; WNV NS2B-NS3 inh: 0.07; MT1-MMP promoter: inactive

What do the screens show for `CCc1c(C)sc(NC(=O)OC)c1C(=O)N1CCCCC1`?
Hsc70: 4.1%; WNV NS2B-NS3 inh: 1.1; MT1-MMP promoter: inactive

Results for CCOC(=O)c1c(CN2CCCCC2C)oc2ccc(OC)cc12 (stereo unspecified) ?
Hsc70: -2.2%; WNV NS2B-NS3 inh: -0.84; MT1-MMP promoter: inactive

Results for COc1ccc(CN2C(=O)CN=C2Nc2cc(C)ccc2C)cc1 ?
Hsc70: 1.3%; WNV NS2B-NS3 inh: -0.8; MT1-MMP promoter: inactive

How did CC(=O)Nc1ccc(C(=O)OC2CCOC2=O)cc1 (stereo unspecified) do in these assays?
Hsc70: 2.5%; WNV NS2B-NS3 inh: 2.1; MT1-MMP promoter: inactive
